Bm FixLJ act – increases Burkholderia fixLJ two-component signaling; B. multivorans fixK-promoter GFP reporter, 18 h; hits give high values; z-score (no concentration beside the values); 29,000 compounds, 0.3% hits; AID 1918990;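 active means replicate mean overnight rise in green fluorescent reporter signal, 3 or more SD over negative controls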;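 further: score is relative to vehicle wells of the plate; 300 nL library stock went into each well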
Numbers without * were called inactive. These rows are one share of the data, so the mix of outcomes need not match the whole.

SMILES	Bm FixLJ act
CCOCCCN1C(=O)c2ccccc2CC1(C)C(=O)NC1CCCCC1 (stereo unspecified)	-1.51
CC(C)Sc1nnc(NC(=O)c2cccc3nccnc23)s1	0.29
Cn1c(CN2CCCCC2)nc2cc(NC(=O)c3cccc(Br)c3)ccc21	-1.31
COc1cc(C2c3c(oc4ccc(F)cc4c3=O)C(=O)N2c2nc(C)c(C)s2)cc(OC)c1OC (stereo unspecified)	-0.52
C[C@@H]1O[C@@H](OC[C@H]2OC(Oc3c(-c4ccc(O)c(O)c4)oc4cc(O)cc(O)c4c3=O)[C@H](O)[C@@H](O)[C@@H]2O)[C@H](O)[C@H](O)[C@H]1O (stereo partly specified)	-0.57
CN1CCN(c2ncccc2CNC(=O)CC2CCS(=O)(=O)C2)CC1 (stereo unspecified)	-1.14
CCc1nccn1CCNC(=O)C1CC(=O)N(c2ccc(C(C)C)cc2)C1 (stereo unspecified)	-0.96
Cc1coc2c1c(C)cc1oc(=O)c(CC(=O)NCCc3ccc(Cl)cc3)c(C)c12	-2.49
CN(C1CCCCC1)S(=O)(=O)c1ccc2c(c1)c(=O)c(C(=O)NCc1ccc(Cl)cc1)cn2C	0.33
Cc1ccc(NC(=O)Cn2c(=O)n(CCc3ccccc3)c(=O)c3sc4ccccc4c32)cc1C	-1.09
COc1ccc(-c2nnc(C3CCN(S(=O)(=O)c4cccc(Cl)c4)CC3)o2)cc1	-0.95
Cc1ccc(NC(=O)c2cc(C)nn2-c2ccccc2)cc1	-1.48
Cc1cc2n(n1)C(c1cc(C(C)(C)C)c(O)cc1O)Nc1ccccc1-2 (stereo unspecified)	-0.74
Cc1oc2ccc(O)c(CN3CCCCC3C)c2c1C(=O)Nc1ccccc1 (stereo unspecified)	-0.96
O=C(Nc1cccs1)Nc1cc(C(F)(F)F)ccc1Cl	-1.34
COc1ccc(CNC(=O)Cc2c(C)c3c(cc(C)c4c(C)c(C)oc43)oc2=O)cc1	-0.27
Cc1cc(C(=O)N[C@]2(C)CCOC3(CCNCC3)C2O)nc(C)n1 (stereo partly specified)	0.24
Cc1ccc(NC(=O)C2CCCN(c3nc4ccccc4s3)C2)c(C)c1 (stereo unspecified)	-1.8
O=C(COc1ccc2oc3c(c2c1)CCCC3)Nc1ccc(Br)cc1	-0.19
COc1ccccc1/C=C/c1nc(C#N)c(NCCc2ccccc2)o1	1.11
Cc1ccc(NC(=O)C(Cc2c[nH]c3ccccc23)NC(=O)OCC(C)C)cc1 (stereo unspecified)	-2.24
COc1ccccc1-c1cc(C(=O)Nc2cc(OC)c(OC)c(OC)c2)no1	-1.45
CNC(=O)CCN1CCOc2c(O)cc(-c3cccc(Cl)c3)cc2C1	-0.62
CCNc1ccnc(NCCc2csc(-c3ccncc3)n2)n1	0.13
CCC(=O)O[C@]1(C(=O)CCl)[C@@H](C)CC2C3CCC4=CC(=O)C=C[C@]4(C)[C@@]3(F)[C@@H](O)C[C@@]21C (stereo partly specified)	-0.54
COc1cccc2c1C1(CCN(C(=O)c3ccccc3C#N)CC1)OCC2	-0.37
CC(=O)Nc1ccc(NC(=O)C(NC(=O)C2CCC(C)CC2)C(C)C)cc1 (stereo unspecified)	1.41
CCOCCCn1c(=N)c(C(=O)NCc2ccccc2)cc2c(=O)n3ccccc3nc21	-2.19
Cc1cc(-c2ccc(N3CCN(C(C)C)CC3)cc2)cnc1-n1cnnc1	-0.59
CCOc1cccc(C(=O)Nc2cc(C)c(O)c(-c3nc4ncccc4o3)c2)c1	-0.8
CCOC(=O)c1nnn(CC(=O)Nc2cc(C)cc(C)c2)c1C(=O)OCC	-0.53
CCOC(=O)c1ccccc1NC(=O)CSc1nc2cn(CC)nc2c(=O)n1Cc1ccc(Cl)cc1	0.41
CCc1ccc(NC(=O)CN2C(=O)C(c3ccc(Cl)cc3)=NC23CCCCC3)cc1	-0.85
CCCS(=O)(=O)c1ncc(Cl)c(C(=O)Nc2scc(-c3ccccc3)c2C(=O)OCC)n1	-2.98
COc1ccccc1N1CCN(CC(O)COc2cc(C)cc(C)c2)CC1 (stereo unspecified)	-1.82
CC(=O)Nc1c(C(=O)Nc2ccccc2F)oc2ccccc12	-0.58
O=C(CCc1ccc(=O)[nH]n1)N1CCN(C2CCCC2)C(=O)C1	-0.51
Nc1n[nH]c(CNc2cc(-c3ccc(F)cc3)nc3ccnn23)n1	-2.25
COc1cccc(-n2c(SCC(=O)Nc3cccc(Cl)c3)nc3c(oc4ccccc43)c2=O)c1	-2.03
CC(C)CCN(Cc1ccco1)C(=O)c1cc2c(Cl)nc3ccccc3c2s1	1.9
CO/N=C(/C(=O)N[C@@H]1C(=O)N2C(C(=O)O)=C(CSc3nc(=O)c(O)nn3C)CS[C@H]12)c1csc(N)n1	-3.98
COc1ccc(-c2nccn2CCN2CCOC2=O)c2ccccc12	-1.44
CCc1ccc(NC(=O)c2sc3nc4c(cc3c2N)CN(CC)CC4)cc1	-0.87
CC(C)c1nnsc1CNC(=O)C1CC(=O)N(Cc2ccccn2)C1 (stereo unspecified)	-1.61
CCCCOC(=O)c1ccc(NC(=O)/C(C#N)=C/c2ccc(C)o2)cc1	-2.75
Cc1ccc(CCNC(=O)C2CCCN(Cc3nc(-c4cccc(Cl)c4)oc3C)C2)cc1 (stereo unspecified)	-0.73
O=C(c1ccc(CSc2nc3ccncc3n2Cc2ccccc2F)cc1)N1CCCCCC1	-1.89
CCOc1ccc(CCNC(=O)Cn2nnc(-c3ccccc3Cl)n2)cc1OCC	-2.25
COc1ccc(CCNC(=O)c2ccc(CS(=O)(=O)c3ccc(C)cc3)o2)cc1OC	0.1
CCOC(=O)c1c(NC(=O)/C=C/c2ccccc2)sc2c1CCCC2	0.64
COCCC(=O)N1CCOc2c(O)cc(-c3cccc(Cl)c3)cc2C1	-4.04
NC(=O)C1(NC(=O)Cc2cc3c(cc2Cl)OCCO3)CCCCCC1	2.23
Cc1noc(-c2ccc(S(=O)(=O)NCCC3CCCCN3S(C)(=O)=O)o2)c1C (stereo unspecified)	-2.2
C#CC(C)(CC)NC(=O)c1cc2c(n(-c3ccc(Cl)cc3)c1=O)CC(C)(C)CC2=O (stereo unspecified)	-2.09
O=C(Nc1ccc(F)cc1)N1CCN(c2ccc3nnc(-c4ccc(F)cc4)n3n2)CC1	-0.42
O=C(C1CCCN(S(=O)(=O)c2cccc3nsnc23)C1)N1CCN(c2cccc(Cl)c2)CC1 (stereo unspecified)	-1.3
COc1cccc(C(=O)NC2=NC(c3ccccc3F)CC(=O)N2)c1 (stereo unspecified)	-0.15
CCC(NC(=O)Cc1nc2ccc(Cl)cc2[nH]1)c1ncccc1C (stereo unspecified)	0.74
CCOc1ccccc1NC(=O)Cn1c(=O)n(Cc2ccco2)c(=O)c2cccnc21	-0.91
O=C(CCn1c(=O)c2sccc2n(Cc2ccc(F)cc2)c1=O)NCc1ccc2c(c1)OCO2	-0.91
Carrying on:
SMILES	Bm FixLJ act
Cc1cccc(NC(=O)CSC2=Nc3ccccc3C3=NC(CC(=O)NCc4cccs4)C(=O)N23)c1 (stereo unspecified)	-0.98
COc1cc2c(cc1OC)n(CC(=O)Nc1ccccc1)c(=O)n1nc(-c3ccccc3)nc21	-1.3
Cc1ccc(-c2cc(C(=O)OCC(=O)c3ccccc3)c3cccc(Cl)c3n2)cc1	-0.62
Cc1c(CN(C)C(=O)C2CCCCN2C(=O)C2CC2)[nH]c2ccccc12 (stereo unspecified)	-4.69
CCC(=O)N1CCc2cc(S(=O)(=O)NC(Cc3ccccc3)C(=O)Nc3ccc(Cl)cc3)ccc21 (stereo unspecified)	-1.66
CC(=O)[C@H]1CC[C@H]2[C@@H]3CC=C4C[C@@H](O)CC[C@]4(C)[C@H]3CC[C@]12C	-0.53
CCOc1ccc(NC(=O)c2c(NC(=O)c3cccc(C)c3)sc3c2CCC3)cc1	0.52
Cc1nnc(SCCCNC(=O)C2CCCCCN2C)s1 (stereo unspecified)	-1.99
COc1cc(-c2nc3nc(C)cc(C)n3c2Nc2ccc(Cl)cc2)ccc1O	-6.63
COc1ccc(-c2cc(C(F)(F)F)n3nc(C(=O)Nc4cccc(C(F)(F)F)c4)c(Br)c3n2)cc1	-0.31
CC(C)(NC(=O)c1cccs1)C(=O)N1CCCC(c2ccn[nH]2)C1 (stereo unspecified)	-0.41
Cc1cc(=O)n2nc(N3CCC(C(=O)NCc4ccccc4Cl)CC3)sc2n1	-0.36
Cc1cccc(-n2c(SCC(=O)Nc3ccccc3C)nc3c(oc4ccccc43)c2=O)c1	-0.74
CCOC(=O)C1CCN(c2c(C(=O)c3ccc(OCC)cc3)cnc3ccc(OC)cc23)CC1	1.37
CCCC12CN3CC(C)(CN(C1)C3c1ccccn1)C2=O (stereo unspecified)	-1.4
CCOc1cc(C)c(Cl)cc1S(=O)(=O)N1CCC[C@]2(CCCC2O)C1 (stereo partly specified)	-2.22
Cc1ccc(-n2c(=O)c3cccnc3n2CC(=O)NCc2ccc(F)cc2)cc1C	-0.16
CCCc1cc(=O)n2[nH]c(-c3ccc(C)cc3)nc2n1	-1.07
CCc1ccc(C(=O)c2cn(CC(=O)Nc3ccc(F)cc3)c3cc4c(cc3c2=O)OCO4)cc1	2.05
ClC1C(Cl)C(Cl)C(Cl)C(Cl)C1Cl (stereo unspecified)	-2.31

A second format for part of the listing above.
SMILES | Bm FixLJ act
Cc1noc(-c2ccc(S(=O)(=O)NCCC3CCCCN3S(C)(=O)=O)o2)c1C (stereo unspecified) | -2.2
C#CC(C)(CC)NC(=O)c1cc2c(n(-c3ccc(Cl)cc3)c1=O)CC(C)(C)CC2=O (stereo unspecified) | -2.09
O=C(Nc1ccc(F)cc1)N1CCN(c2ccc3nnc(-c4ccc(F)cc4)n3n2)CC1 | -0.42
O=C(C1CCCN(S(=O)(=O)c2cccc3nsnc23)C1)N1CCN(c2cccc(Cl)c2)CC1 (stereo unspecified) | -1.3
COc1cccc(C(=O)NC2=NC(c3ccccc3F)CC(=O)N2)c1 (stereo unspecified) | -0.15
CCC(NC(=O)Cc1nc2ccc(Cl)cc2[nH]1)c1ncccc1C (stereo unspecified) | 0.74
CCOc1ccccc1NC(=O)Cn1c(=O)n(Cc2ccco2)c(=O)c2cccnc21 | -0.91
O=C(CCn1c(=O)c2sccc2n(Cc2ccc(F)cc2)c1=O)NCc1ccc2c(c1)OCO2 | -0.91
Cc1cccc(NC(=O)CSC2=Nc3ccccc3C3=NC(CC(=O)NCc4cccs4)C(=O)N23)c1 (stereo unspecified) | -0.98
COc1cc2c(cc1OC)n(CC(=O)Nc1ccccc1)c(=O)n1nc(-c3ccccc3)nc21 | -1.3
Cc1ccc(-c2cc(C(=O)OCC(=O)c3ccccc3)c3cccc(Cl)c3n2)cc1 | -0.62
Cc1c(CN(C)C(=O)C2CCCCN2C(=O)C2CC2)[nH]c2ccccc12 (stereo unspecified) | -4.69
CCC(=O)N1CCc2cc(S(=O)(=O)NC(Cc3ccccc3)C(=O)Nc3ccc(Cl)cc3)ccc21 (stereo unspecified) | -1.66
CC(=O)[C@H]1CC[C@H]2[C@@H]3CC=C4C[C@@H](O)CC[C@]4(C)[C@H]3CC[C@]12C | -0.53
CCOc1ccc(NC(=O)c2c(NC(=O)c3cccc(C)c3)sc3c2CCC3)cc1 | 0.52
Cc1nnc(SCCCNC(=O)C2CCCCCN2C)s1 (stereo unspecified) | -1.99
COc1cc(-c2nc3nc(C)cc(C)n3c2Nc2ccc(Cl)cc2)ccc1O | -6.63
COc1ccc(-c2cc(C(F)(F)F)n3nc(C(=O)Nc4cccc(C(F)(F)F)c4)c(Br)c3n2)cc1 | -0.31
CC(C)(NC(=O)c1cccs1)C(=O)N1CCCC(c2ccn[nH]2)C1 (stereo unspecified) | -0.41
Cc1cc(=O)n2nc(N3CCC(C(=O)NCc4ccccc4Cl)CC3)sc2n1 | -0.36
Cc1cccc(-n2c(SCC(=O)Nc3ccccc3C)nc3c(oc4ccccc43)c2=O)c1 | -0.74
CCOC(=O)C1CCN(c2c(C(=O)c3ccc(OCC)cc3)cnc3ccc(OC)cc23)CC1 | 1.37
CCCC12CN3CC(C)(CN(C1)C3c1ccccn1)C2=O (stereo unspecified) | -1.4
CCOc1cc(C)c(Cl)cc1S(=O)(=O)N1CCC[C@]2(CCCC2O)C1 (stereo partly specified) | -2.22
Cc1ccc(-n2c(=O)c3cccnc3n2CC(=O)NCc2ccc(F)cc2)cc1C | -0.16

Look-ups from the entries so far:
`Cc1ccc(-c2cc(C(=O)OCC(=O)c3ccccc3)c3cccc(Cl)c3n2)cc1` in Bm FixLJ act has -0.62
`CCc1ccc(C(=O)c2cn(CC(=O)Nc3ccc(F)cc3)c3cc4c(cc3c2=O)OCO4)cc1` in Bm FixLJ act has 2.05

(further entries)
SMILES	Bm FixLJ act
Cc1ccc2cc(CN(C(=O)c3cccc(Cl)c3)c3ccccc3)c(=O)[nH]c2c1	-1.46
COC(=O)c1ccc(NC(=O)N2CCc3c([nH]c4ccccc34)C2c2ccc(C)cc2)cc1 (stereo unspecified)	-0.75
CCCc1cc(=O)n2c(C(=O)Nc3ccc(OCC)cc3)c(C(=O)Nc3ccc(C)cc3)sc2n1	-1.67
CC(=O)N1CCc2cc(Br)cc(S(=O)(=O)N3CCC(C(=O)N(C)c4cc(C)ccc4C)CC3)c21	-1.08
CCOc1ccc(NC(=O)CSc2oc(-c3ccc(C)cc3)nc2S(=O)(=O)c2ccc(C)cc2)cc1	0.84
Nc1[nH]c(=O)ncc1F	-2.28
CCOC(=O)c1ccccc1Nc1nc2ccc(C)cc2n2nnnc12	0.11
NC(=O)c1cnccn1	-0.71
CCCN1CCN(CCCNC(=O)c2cc3c(s2)-c2ccccc2OC3)CC1	-0.53
COc1cc(S(=O)(=O)n2ccnc2C(C)C)ccc1Br	-3.69
COc1ccc(CNC(=O)c2cc(=O)c3cc(C)ccc3o2)cc1	-0.49
CCOC(=O)c1ccc(-c2ccc(/C=C(\C#N)C(=O)Nc3c(C)cccc3Cl)o2)cc1	-0.05
